# Bioassay records as filed in PubChem BioAssay.
# PV pol inh: poliovirus RNA polymerase inhibition | % elongation, % (compound at 16.7 µg/mL) | AID 588519 | P03300 | hit rate 0.66% among 150,000 | poliovirus polymerase elongation, fluorescence polarization; stronger effect = lower value; in the data active = % elongation below about 90%; note: some results filed as inactive read as strong as hits
# Target sequence (P03300 1749-2209 limits assumed): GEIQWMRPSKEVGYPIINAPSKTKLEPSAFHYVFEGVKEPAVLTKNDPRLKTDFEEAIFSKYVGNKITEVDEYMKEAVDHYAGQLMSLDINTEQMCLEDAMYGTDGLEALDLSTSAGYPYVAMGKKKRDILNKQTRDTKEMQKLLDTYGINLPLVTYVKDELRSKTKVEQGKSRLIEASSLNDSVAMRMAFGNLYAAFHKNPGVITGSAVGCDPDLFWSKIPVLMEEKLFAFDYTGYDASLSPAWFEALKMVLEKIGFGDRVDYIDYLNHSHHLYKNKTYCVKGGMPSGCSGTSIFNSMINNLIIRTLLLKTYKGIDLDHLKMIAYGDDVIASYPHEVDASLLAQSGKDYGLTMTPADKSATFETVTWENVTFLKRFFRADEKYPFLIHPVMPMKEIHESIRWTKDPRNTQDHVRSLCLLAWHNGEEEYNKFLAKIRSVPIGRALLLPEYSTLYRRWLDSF
# PV pol inh intensity: recorded beside PV pol inh, whose call it bears; % elongation; measured here: total intensity read-out; formula for this scale not given here;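 total fluorescence in place of polarization; lower means less elongation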
# Active calls of the source: *.
# Order of results – PV pol inh intensity | PV pol inh
CCOc1ccccc1N(C)C(=O)Cn1nc(Cc2ccncc2)c2ccccc2c1=O
    106.0 | 104.0
Cn1ccc2cc(S(=O)(=O)N3CCC(C(=O)NCCc4ccccc4)CC3)ccc21
    111.0 | 107.0
COc1cccc(NC(=O)CSC2=Nc3ccccc3C3=NC(CC(=O)NC4CCCCC4)C(=O)N23)c1 (stereo unspecified)
    108.0 | 107.0
Cc1ccc(-c2nnc(SCC(=O)NC3CCCC3)nc2-c2ccc(C)cc2)cc1
    109.0 | 106.0
CCC1CCCCN1S(=O)(=O)c1ccc(NC(=O)c2cc(=O)c3c(C)cc(C)cc3o2)cc1 (stereo unspecified)
    114.0 | 106.0
Cc1ccc(CN2CCCn3nc(C(=O)NCCc4ccccc4Cl)cc3C2=O)cc1
    109.0 | 107.0
COc1ccc(-c2cnc(C)o2)cc1S(=O)(=O)Nc1c(C)cc(C)cc1C
    97.0 | 100.0
Cc1cccc(N(C)C(=O)c2cc(S(=O)(=O)N3CCCC3)cn2C)c1
    113.0 | 108.0
Cn1ccc2cc(S(=O)(=O)N3CCCC(C(=O)NCc4ccccc4F)C3)ccc21 (stereo unspecified)
    106.0 | 101.0
Cc1ccccc1CNC(=O)CCCn1c(=O)c2cccn2c2ccccc21
    105.0 | 111.0
CSc1ccc(CNC(=O)CCc2c(C)nn(-c3ccc(N4CCCC4)nn3)c2C)cc1
    111.0 | 104.0
CC(C)CCNC(=O)C1CCN(C(=O)N2CCOc3ccc(Cl)cc32)CC1
    106.0 | 107.0
COc1ccc(N2CC(NC(=O)c3ccc(S(=O)(=O)N4CCOCC4)cc3)CC2=O)cc1 (stereo unspecified)
    102.0 | 103.0
COc1ccc(/C=C/c2nc(C#N)c(N3CCC(C(N)=O)CC3)o2)cc1OC
    90.0 | 108.0
N#C/C(=C\c1ccc(F)cc1)c1nc(-c2ccc(-c3ccccc3)cc2)cs1
    115.0 | 106.0

# Order of results – PV pol inh intensity | PV pol inh
Cc1ccc(C)c(Nc2nn3c(=O)c4ccc(C(=O)NCc5cccs5)cc4nc3s2)c1
    104.0 | 101.0
CCOc1ccc(CN(CCc2ccc3c(c2)OCO3)Cc2cc(OC)ccc2O)cc1
    109.0 | 107.0
Cc1cccc(N2CCN(C(=O)CS(=O)(=O)Cc3nc(-c4ccccc4C)oc3C)CC2C)c1 (stereo unspecified)
    105.0 | 105.0
Cc1ccc(CNC(=O)c2ccc3c(c2)N(Cc2ccccc2)C(=O)c2ccccc2S3(=O)=O)cc1
    106.0 | 107.0
COc1ccc(NC(=O)CC2C(=O)N(c3ccc(C)cc3)C(=O)N2Cc2ccc(C)cc2)cc1 (stereo unspecified)
    108.0 | 105.0
O=C(c1c2c(nc3ccccc13)C(=O)N(C1CCCCC1)C2)N1CCN(c2ccc(F)cc2)CC1
    116.0 | 107.0
CC(=O)Nc1cccc(-c2nnc(SCC(=O)c3cc([N+](=O)[O-])ccc3Cl)o2)c1
    103.0 | 105.0
O=C(COc1ccccc1)N(Cc1cccnc1)c1nc2c(F)cc(F)cc2s1
    111.0 | 105.0
COc1ccc(-c2nc3scc(CCNS(=O)(=O)c4ccc(F)cc4C)n3n2)cc1
    113.0 | 109.0
COc1ccc2c(CC(=O)Nc3ccc(C)cc3)coc2c1
    105.0 | 102.0
CCc1ccc(-n2c(C)nnc2SCc2nc(-c3ccc(OC)cc3)no2)cc1
    101.0 | 108.0
COc1cccc(-c2cc(C(=O)Nc3cc(C)nn3-c3ccccc3)no2)c1
    110.0 | 106.0
Cc1cccn2c(=O)c3cc(C(=O)NC(C)(C)C)n(C)c3nc12
    110.0 | 108.0
O=C(CCSCc1ccc(Cl)cc1)NCc1ccc(F)cc1Cl
    105.0 | 106.0
Clc1ccc(CN2CCN(c3ncnc4sc5c(c34)CCCC5)CC2)cc1Cl
    113.0 | 108.0

# Order of results – PV pol inh intensity | PV pol inh
COc1ccc(CNC(=O)CCc2c(C)nn(-c3ccc(N4CCOCC4)nn3)c2C)c(OC)c1
    109.0 | 107.0
CCC(=O)N1CCc2cc(S(=O)(=O)NC(CC(C)C)C(=O)NCCc3ccccc3)ccc21 (stereo unspecified)
    98.0 | 101.0
O=C(Nc1ccc(C(=O)OCc2cc(=O)n3c4c(sc3n2)CCCC4)cc1)c1cccc(F)c1
    111.0 | 107.0
COc1cc(C2C(=O)N(C3CCCCC3)CC(=O)N2CCC2=CCCCC2)ccc1OC(C)C (stereo unspecified)
    98.0 | 103.0
Cc1c(C(=O)N(Cc2ccc(N(C)C)cc2)C2CCS(=O)(=O)C2)oc2ccccc12 (stereo unspecified)
    108.0 | 106.0
CC1CCCCN1C(=O)Cn1c(SCC(=O)N(C)c2ccccc2)nc2ccccc21 (stereo unspecified)
    112.0 | 110.0
CCc1nnc2c3ccccc3nc(Nc3ccc(C(C)=O)cc3)n12
    110.0 | 107.0
CCOC(=O)N1CCC(NC(=O)c2ccc3c(c2)N(Cc2ccc(F)cc2)C(=O)c2ccccc2S3=O)CC1 (stereo unspecified)
    104.0 | 100.0
CCOC(=O)c1oc2ccc(S(=O)(=O)n3nc(-c4cc(OC)cc(OC)c4)cc3N)cc2c1C
    109.0 | 115.0
Cc1ccc(C)c(N2CCN(C(=O)CCNS(=O)(=O)c3ccc4c(c3)CCN4C(=O)C3CC3)CC2)c1
    115.0 | 105.0
O=C(c1cccc(Cl)c1)n1nc(-c2cccnc2)nc1NCc1ccccc1
    94.0 | 94.0
Oc1ccccc1-c1nc(/C=C/c2ccc(F)cc2)nn1-c1ccccc1
    106.0 | 104.0
Cc1ccc(NC(=O)c2cccc(N3CCCS3(=O)=O)c2)cc1
    109.0 | 110.0
O=C1c2oc3ccccc3c(=O)c2C(c2cccc(O)c2)N1c1nncs1 (stereo unspecified)
    109.0 | 106.0
COc1ccc(NC(=O)CN2C(=O)CCn3nc(-c4cccn4C)cc32)cc1Cl
    104.0 | 106.0

# Order of results – PV pol inh intensity | PV pol inh
Cc1ccc(NC(=O)CCCc2nc(-c3ccco3)no2)cc1Cl
    109.0 | 105.0
CCN(CCCNC(=O)c1cc2c(=O)n(C)c3ccccc3c2s1)Cc1ccccc1
    101.0 | 96.0
CCNC(=O)c1ccc2nc(CCc3ccccc3)oc2c1
    111.0 | 111.0
Cc1ccc(C)c(NC(=O)C2CCN(S(=O)(=O)c3c(C)noc3/C=C/c3cccs3)CC2)c1
    107.0 | 101.0
COc1ccc(OCC(=O)N2CCN(C(=O)c3ccc(OC)c(OC)c3)CC2)cc1
    108.0 | 106.0
Cc1ccc(NC(=O)Cc2coc3ccc(C(C)C)cc23)cc1Cl
    110.0 | 117.0
CC1=C(C(=O)Nc2ccc(C)cc2C)C(CC(C)C)n2nc(SCc3ccccc3C)nc2N1 (stereo unspecified)
    111.0 | 110.0
CCCCC(=O)Nc1ccc2nc(SCC(=O)N3CCCC3)sc2c1
    133.0 | 126.0
COc1cccc2c1cc1c(=O)n(CC(=O)N3CCCCC3)nc(C)n12
    107.0 | 102.0
CSc1ccc(CCNC(=O)c2cc3cc4cc(C)ccc4nc3s2)cc1
    99.0 | 108.0
Cc1ccc(-n2nc(C)c3c2NC(=O)CSC3c2ccc(O)cc2)cc1Cl (stereo unspecified)
    95.0 | 101.0
O=C(NCc1ccccc1)c1ccc2c(c1)nc1n2CCCCC1
    107.0 | 101.0
CCCCc1nn2c(=O)cc(COC(=O)CNC(=O)c3ccccc3C)nc2s1
    98.0 | 100.0
Cc1ccc(Cl)cc1N1CCN(C(=O)Cn2cnc3sc(C)c(S(=O)(=O)N4CCC(C)CC4)c3c2=O)CC1
    107.0 | 108.0
Cc1c(C)n(Cc2ccccc2)c2ccc(C(=O)NCC(C)c3ccccc3)cc12 (stereo unspecified)
    104.0 | 106.0

# Quoted at random: two compounds from above.
# Order of results – PV pol inh intensity | PV pol inh
CCNC(=O)c1ccc2nc(CCc3ccccc3)oc2c1
    111.0 | 111.0
CSc1ccc(CCNC(=O)c2cc3cc4cc(C)ccc4nc3s2)cc1
    99.0 | 108.0

# (next part)
# Order of results – PV pol inh intensity | PV pol inh
CN(C)c1ccc(CN(CC2CCCO2)C(=O)COc2ccccc2Cl)cc1 (stereo unspecified)
    106.0 | 104.0
Cc1ccc(CNC(=O)CSc2nc3c(sc4ccccc43)c(=O)n2CCCOC(C)C)cc1
    103.0 | 103.0
COc1ccc(CNC(=O)Cn2ccc3cc(S(=O)(=O)N4CCCCCC4)ccc32)c(OC)c1
    90.0 | 111.0
COc1ccccc1C(=O)NCc1nc2cccnc2n1Cc1ccc(F)cc1
    108.0 | 107.0
O=S(=O)(c1ccc(-c2cnc(C3CC3)o2)cc1)N1CCN(c2ccc(F)cc2)CC1
    107.0 | 110.0
COc1ccc(Nc2c3c(nc4ccc(NC(=O)c5cc(Cl)ccc5OC)cc24)CCCC3)cc1OC
    99.0 | 107.0
COc1cccc(NC(=O)C(C)n2c(=O)cc(C(F)(F)F)c3c(C)nn(C)c32)c1 (stereo unspecified)
    110.0 | 106.0
O=C(Cn1c(=O)nc(-c2ccccc2)c2ccccc21)Nc1ccc(Cl)c(C(F)(F)F)c1
    111.0 | 111.0
CCOC(=O)c1c(C)oc2nc(C)nc(NCCc3ccc(Cl)cc3)c12
    111.0 | 107.0
COc1cc(C2C(=O)N(C3CCCCC3)CC(=O)N2CCc2ccccc2)ccc1OC(C)C (stereo unspecified)
    106.0 | 101.0
CCc1ccc(-c2cn3c(n2)sc2cc(C(=O)NCCCc4ccccc4)ccc23)cc1
    105.0 | 110.0
O=C1[C@@H]2CSC(c3ccc(C(F)(F)F)cc3)N2C(=O)N1c1ccccc1 (stereo partly specified)
    108.0 | 108.0
COc1ccc(NC(=O)c2oc3ccc(S(=O)(=O)N4CCC5(CC4)OCCO5)cc3c2C)cc1Cl
    105.0 | 103.0
CCOC(=O)c1c(C)c(-c2ccccc2)n(CC(=O)NC(CC)Cc2ccccc2)c1C (stereo unspecified)
    105.0 | 108.0
CC(C)c1ccc(NC(=O)c2cn(C3CCCC3)c(=O)c3c2c2ccccc2n3C)cc1
    109.0 | 108.0

# Order of results – PV pol inh intensity | PV pol inh
Cc1c(Cl)cccc1NC(=O)c1cc(-c2ccc3c(c2)OCO3)on1
    109.0 | 104.0
COc1ccc(S(=O)(=O)n2nc(-c3ccco3)nc2NCc2ccc(OC)c(OC)c2)cc1
    100.0 | 103.0
CCOc1ccc(CCNC(=O)CN2C(=O)COc3ccc(S(=O)(=O)N4CCCC4)cc32)cc1
    106.0 | 106.0
Cc1cccc(Nc2ncnc3c2cnn3C)c1C
    105.0 | 108.0
CC(=O)Nc1ccc(S(=O)(=O)N2CCC(Oc3ccc(-n4cnnn4)cc3)CC2)cc1
    91.0 | 106.0
COc1ccccc1C(=O)Nc1nc(-c2ccc(Br)cc2)ns1
    93.0 | 108.0
Cc1cccc(CN2C(=O)c3ccccc3S(=O)(=O)c3ccc(C(=O)N4CCCC4)cc32)c1
    111.0 | 105.0
Cc1ccc(CNC(=O)Cn2nc(N3CCN(c4ccccc4)CC3)ccc2=O)cc1
    101.0 | 104.0

# Compounds above with fluorine, in the order listed:
# Order of results – PV pol inh intensity | PV pol inh
Cn1ccc2cc(S(=O)(=O)N3CCCC(C(=O)NCc4ccccc4F)C3)ccc21 (stereo unspecified)
    106.0 | 101.0
N#C/C(=C\c1ccc(F)cc1)c1nc(-c2ccc(-c3ccccc3)cc2)cs1
    115.0 | 106.0
O=C(c1c2c(nc3ccccc13)C(=O)N(C1CCCCC1)C2)N1CCN(c2ccc(F)cc2)CC1
    116.0 | 107.0
O=C(COc1ccccc1)N(Cc1cccnc1)c1nc2c(F)cc(F)cc2s1
    111.0 | 105.0
COc1ccc(-c2nc3scc(CCNS(=O)(=O)c4ccc(F)cc4C)n3n2)cc1
    113.0 | 109.0
O=C(CCSCc1ccc(Cl)cc1)NCc1ccc(F)cc1Cl
    105.0 | 106.0
O=C(Nc1ccc(C(=O)OCc2cc(=O)n3c4c(sc3n2)CCCC4)cc1)c1cccc(F)c1
    111.0 | 107.0
CCOC(=O)N1CCC(NC(=O)c2ccc3c(c2)N(Cc2ccc(F)cc2)C(=O)c2ccccc2S3=O)CC1 (stereo unspecified)
    104.0 | 100.0
Oc1ccccc1-c1nc(/C=C/c2ccc(F)cc2)nn1-c1ccccc1
    106.0 | 104.0
COc1ccccc1C(=O)NCc1nc2cccnc2n1Cc1ccc(F)cc1
    108.0 | 107.0
O=S(=O)(c1ccc(-c2cnc(C3CC3)o2)cc1)N1CCN(c2ccc(F)cc2)CC1
    107.0 | 110.0
COc1cccc(NC(=O)C(C)n2c(=O)cc(C(F)(F)F)c3c(C)nn(C)c32)c1 (stereo unspecified)
    110.0 | 106.0
O=C(Cn1c(=O)nc(-c2ccccc2)c2ccccc21)Nc1ccc(Cl)c(C(F)(F)F)c1
    111.0 | 111.0
O=C1[C@@H]2CSC(c3ccc(C(F)(F)F)cc3)N2C(=O)N1c1ccccc1 (stereo partly specified)
    108.0 | 108.0

# A portion of the library; count on the stated rates, not on these rows.
